ugtP null kill = growth inhibition of ugtP-null S. aureus, primary screen, RN4220 ugtP deletion, OD600. 16 h; some inactives read as strong as hits. growth inhibition, % (concentration not given with the values). hit rate 0.54% among 330,000;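 active = z-score under -3 and OD600 up to 0.15 on both plates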;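 also: plate controls were untreated wells for no effect and antibiotic for full effect; wells of about 80 µL received 100 nL stock; the first replicate is given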
Autofluor counter = compound fluorescence in toxin protease inhibitor counterscreen | compound autofluorescence counterscreen, microsphere flow cytometry; stronger effect = higher value | hit rate 3.1% among 360,000 | fluorescence intensity (no concentration beside the values) | AID 624483;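 active = at least 3 SD above the mean of all compounds, about 16000 in these data; inconclusive = too few beads counted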;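 also: 100 nL of 1 mM stock went into each well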
Sa RN4220 lethal = growth inhibition of S. aureus RN4220, primary screen, OD600; 16 h; inhibition, % (concentration not given with the values); hit rate 0.33% among 330,000; AID 1259311, 2017;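 active = z-score of -3 or lower and OD600 up to 0.18 on both plates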;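 also: plate controls were untreated cells for no effect and reference antibiotic for full effect; stock transfer was 100 nL into about 80 µL; one replicate is shown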
BJeLR lethal = MLPCN primary cell-based screen for lethality selective to Ras in HRASV12 cells; BJeLR (HRASV12) viability, CellTiter-Glo ATP luminescence, 48 h; reference of the scale not given here; inhibition, % (concentration not given with the values); hit rate 0.17% among 300,000; AID 1554, 2009;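 active = replicate mean above 50%; inconclusive = above 50% but judged a plate artefact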;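 also: 50 nL library stock added to about 25 µL; numbers are from one replicate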
PrP 5UTR inh = inhibition of PrP 5' UTR reporter expression; cell-based PrP 5' UTR mRNA reporter, plate reader; inhibition, % (no concentration beside the values); hit rate 0.35% among 340,000; AID 488862, 2010;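 active = every replicate at 50% or more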;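 also: 0 = median of the neutral control wells; tested in H4 reporter cells; numbers are from one replicate; inactives centre near -14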
Mtb hypoxia rep = PubChem AID 1159583. M. tuberculosis hypoxia-regulated fluorescent reporter, fluorescence. fluorescence inhibition, % (no concentration beside the values). hit rate 0.1% among 300,000;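 active = 35 to 45% if threefold the growth effect, above 45% if 1.5-fold the growth effect; inactive = the rest, general growth blockers included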;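 also: wells of about 50 µL received 100 nL stock; 0% = vehicle wells and 100% = reference inhibitor wells; whole bacteria with a GFP reporter of the hypoxia response; strong numbers were not always called active; many hits fall short of the cut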
Mtb hypoxia rep growth = also measured in Mtb hypoxia rep; calls as there; growth inhibition, %; measured here: M. tuberculosis growth (absorbance);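 0% = vehicle and 100% = reference antibiotic; read after six days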
* = called active by the depositor; ? = inconclusive; nt = not tested or not shown; & = joins results of further samples.

Start of the data: the first 4 records (preview)
SMILES	ugtP null kill	Autofluor counter	Sa RN4220 lethal	BJeLR lethal	PrP 5UTR inh	Mtb hypoxia rep	Mtb hypoxia rep growth
O=C(NN1CCCCC1)c1cccc(COc2ccc(Cl)cc2)c1	5	8375	7.2	-4	-45	9	3
Cc1cc(OCC(=O)O)c2c3c(c(=O)oc2c1)CCCC3	-4	3526	2.0	10	-1	nt	nt
Cc1cc(C)n2nc(SCC(=O)N3CCCC(C)C3)nc2n1 (configuration not stated)	10	4258	2.6	nt	-8	2	2
O=C(O)CCNc1cc2ccccc2cc1C(=O)O	4	4750	4.1	2	-23	0	8

All compounds of this part, repeating the preview:
SMILES	ugtP null kill	Autofluor counter	Sa RN4220 lethal	BJeLR lethal	PrP 5UTR inh	Mtb hypoxia rep	Mtb hypoxia rep growth
O=C(NN1CCCCC1)c1cccc(COc2ccc(Cl)cc2)c1	5	8375	7.2	-4	-45	9	3
Cc1cc(OCC(=O)O)c2c3c(c(=O)oc2c1)CCCC3	-4	3526	2.0	10	-1	nt	nt
Cc1cc(C)n2nc(SCC(=O)N3CCCC(C)C3)nc2n1 (configuration not stated)	10	4258	2.6	nt	-8	2	2
O=C(O)CCNc1cc2ccccc2cc1C(=O)O	4	4750	4.1	2	-23	0	8
O=C(Nc1ccc(Cl)cc1)N1CCc2ccccc2C1	-2	4778	2.6	-8	-81	7	21
COc1ccc(CC(=O)NN=C/C=C/c2cccc([N+](=O)[O-])c2)cc1OC	-3	nt	0.7	nt	nt	0	7
O=C(CN1C(=O)C2CC=CCC2C1=O)Nc1ccc(OC(F)(F)F)cc1 (configuration not stated)	0	3665	-3.7	nt	-8	11	8
O=C(OCc1ccc(Cl)cc1)c1cccnc1Cl	6	4840	6.1	-7	-24	7	-1
NC(=O)COC(=O)CSc1cccc2cccc(Cl)c12	3	3457	2.0	3	-15	5	-1
Cc1ccc(S(=O)(=O)CCC(=O)Nc2ccc3c(c2)OCO3)cc1	14	3835	5.0	-4	-6	5	-2
CCc1ccc(CNC(=O)CCS(=O)(=O)Cc2ccc(C)cc2)cc1	-7	3988	-3.9	10	-3	0	-10
Cc1c(/C(O)=C2/C(=O)C(=O)N(Cc3cccnc3)C2c2cccs2)cnn1-c1ccccc1 (configuration not stated)	-5	4167	4.2	-4	-22	14	8
CCCCC(=O)Nc1ccc(S(=O)(=O)N2CCCCC2c2cccnc2)cc1 (configuration not stated)	7	5462	-0.6	-12	-3	8	-6
CC(C)N(Cc1ccccc1)C(=O)CC(=O)N(Cc1ccccc1)C(C)C	14	5070	3.4	0	-22	-6	0
Cc1ccc(C)c(N2CCN(C(=O)c3csc(C)c3C)CC2)c1	15	2631	4.6	-11	-21	7	6
Cc1onc(-c2ccccc2Cl)c1C(=O)Oc1cccc2cccnc12	6	4546	6.4	-5	-7	13	1
O=C(CN(C(=O)CNC(=O)c1ccco1)c1ccc(F)c(Cl)c1)NC1CCCCC1	11	3995	4.8	-13	-28	8	2
O=C(Nc1cc(C(F)(F)F)ccc1N1CCOCC1)c1cncc(Br)c1	-15	22690*	3.8	9	-9	-1	8
COC(=O)c1ccccc1NC(=O)CSc1nnc(COc2cccc(OC)c2)n1C	16	6028	6.9	5	-14	8	5
CCOc1ccc(CC(=O)Nc2nccs2)cc1OCC	nt	4688	nt	3	-20	nt	nt
CCOC(=O)Cn1c2ccccc2c2nc3ccccc3nc21	-6	4231	-0.6	-13	-13	-1	7
CCCCn1c(N)c(N(CCOC)C(=O)CN(C)S(=O)(=O)c2ccc(F)cc2)c(=O)[nH]c1=O	3	5270	0.2	-6	-22	0	-3
CC(=O)c1ccc(NC(=O)Cn2cnc(S(=O)(=O)N3CCc4ccccc43)c2)cc1	0	4390	-3.5	4	-16	-1	-6
CC(C)(C)C1C=C(C(=O)N2CCOCC2)OC(OCc2ccc(CO)cc2)C1 (configuration not stated)	5&-3	nt	2.8&3.8	nt	nt	2&12	10&3
C/C=C/c1ccc(OCC(=O)Nc2cc(C(F)(F)F)ccc2N2CCOCC2)c(OC)c1	5	5697	2.0	10	-19	-5	2
New compounds follow.
SMILES	ugtP null kill	Autofluor counter	Sa RN4220 lethal	BJeLR lethal	PrP 5UTR inh	Mtb hypoxia rep	Mtb hypoxia rep growth
CCCOc1ccc(Cl)cc1CNc1ccccc1	41	2465	-5.4	2	-19	3	8
O=C(c1ccco1)N(Cc1cccc([N+](=O)[O-])c1)c1ccc(Br)cc1	33	1989	4.6	-4	-7	-8	-7
Cc1ccccc1N1C(=O)c2ccccc2NC1c1ccncc1 (configuration not stated)	-5	3127	-14	-5	3	22	-14
O=C(Nc1ccc(S(=O)(=O)NCc2ccccc2)cc1)c1ccccc1[N+](=O)[O-]	-6	2471	5.3	-11	-23	7	6
CC(C)CCN1C(Nc2ccccc2)=NCC1Cc1ccccc1 (configuration not stated)	3	nt	4.9	nt	nt	3	5
COc1cc(CCC(=O)OCC(=O)NC(=O)c2ccc(Cl)cc2)cc(OC)c1OC	3	2219	-0.5	-7	-14	8	-1
COC(=O)c1cccc(NC(=O)CSc2nc(C)cc(=O)[nH]2)c1	1	19295*	2.0	-3	-23	4	4
CC(C)c1ccc2c(c1)[C@H]1OCC[C@H]1[C@@H](c1cccs1)N2	30	2150	-0.3	11	-27	20	5
CCCC1C(C#N)=C(N)Oc2cc(C)n(C)c(=O)c21 (configuration not stated)	7	6032	3.1	-12	8	8	5
COc1cccc(/C=N/NC(=O)CSc2nnc(C)n2-c2ccccc2)c1OC	nt	2077	nt	1	-24	nt	nt
CN(C(=O)CCN1C(=O)C2C3C=CC(C3)C2C1=O)c1ccccc1 (configuration not stated)	0	2518	-2.0	7	3	0	1
COC(=O)C1=C(CCc2ccccc2)NC(=O)NC1c1ccc(Cl)cc1 (configuration not stated)	2	3218	4.9	2	-23	-4	3
Cc1ccc(S(=O)(=O)Nc2ccc(O)c(Sc3ncn[nH]3)c2)cc1	-7	2689	0.5	5	-20	5	15
Cc1ccc(NS(=O)(=O)c2cccs2)nc1	10	5193	3.1	-2	-18	-2	-4
O=Nc1ccc(O)c2ncccc12	13	4999	6.9	33	18	25	28
CCOC(=O)c1ccc(Oc2nc(NC)nc(OC)n2)cc1	10	6428	1.4	-9	-43	11	-4
Cc1ccc(NC(=O)C2CCN(S(=O)(=O)c3c(C)n[nH]c3C)CC2)c(C)c1	4	5620	1.6	-4	-6	-9	-7
CC(C)N(C1=N/C(=C\c2ccco2)C(=O)N1c1ccccc1)C(C)C	19	2512	1.8	-1	-9	3	3
CCn1c(CNC(=O)c2ccco2)nnc1SCC(=O)Nc1ccc(Br)cc1F	-7	20415*	11	-2	-25	0	13
O=C(c1cc2ccccc2o1)N1CCN(S(=O)(=O)/C=C/c2ccccc2)CC1	4	4617	10	0	-20	-5	13
CCOC(=O)N1CCN(C(=O)c2ccc3c(=O)n(CC4CCCO4)c(=S)[nH]c3c2)CC1 (configuration not stated)	2	3945	0.3	-4	-4	3	10
Nc1nonc1C(=O)NCCNc1ncccc1[N+](=O)[O-]	17	4139	2.0	-17	-1	6	-2
O=[N+]([O-])c1ccc(S(=O)(=O)N/N=C/c2ccc3c(c2)OCO3)cc1	nt	4364	nt	-2	-4	nt	nt
CCN1CCCC1CNC(=S)Nc1ccc(C(C)=O)cc1 (configuration not stated)	12	6027	0.3	-18	-85	0	10
Cc1cccn2c(=O)c3cc(C(=O)NCC4CCCO4)c(=N)n(CCN4CCOCC4)c3nc12 (configuration not stated)	nt	3680	nt	5	-4	nt	nt
Next part.
SMILES	ugtP null kill	Autofluor counter	Sa RN4220 lethal	BJeLR lethal	PrP 5UTR inh	Mtb hypoxia rep	Mtb hypoxia rep growth
Cc1ccc(-c2noc(CCC(=O)NCc3ccc4c(c3)OCO4)n2)cc1	-1	4635	-2.6	nt	-20	nt	nt
COc1ccc(C(=O)c2ccc(CC#N)s2)cc1	-2	5491	1.5	-12	-37	nt	nt
COc1ccc(C2=NN(c3nc(-c4ccccc4)c(CC(=O)O)s3)C(c3ccco3)C2)cc1 (configuration not stated)	14	10240	5.9	nt	-22	-3	4
O=C(CN1CCCCC1)Nc1cccc2c1OCO2	0	2551	-8.6	-7	-17	9	9
CC(C)=CCN1CCN(Cc2cc(F)ccc2-n2nc(C)cc2C)CC1CCO (configuration not stated)	-4	2047	-0.6	-1	-12	1	-6
O=C(COC(=O)/C=C/c1cccc(F)c1)Nc1ccc2[nH]c(=O)[nH]c2c1	4	5347	3.7	4	2	0	4
COC(=O)c1c(C)oc2ccc(N(C(=O)c3ccncc3)S(=O)(=O)c3ccccc3)cc12	1	4520	9.1	-2	-2	nt	nt
CCSc1nnc(-c2c[nH]c3ccccc23)o1	-6	3463	5.7	-4	-51	13	0
COc1ccc(CNC(=O)COC(=O)C2=COCCO2)cc1	6	4300	-0.2	-11	-11	nt	nt
CC(=O)c1cccc(-n2nnnc2SCC(=O)NNC(=O)C(C)C)c1	9	4517	3.2	nt	-53	-8	-4
COc1ccc(CN2CCN(Cc3cccn3-c3ncccn3)CC2CCO)c(C)c1C (configuration not stated)	5	2787	-1.4	4	-17	-18	-10
CCOc1ccc(-c2c(C(=O)NN=Cc3ccc(OC)cc3)nnn2-c2nonc2N)cc1	5	nt	4.7	nt	nt	0	5
Cc1cc(C(=O)NC2CCCc3c2cnn3-c2cc(F)cc(F)c2)nn1C (configuration not stated)	-1	5752	-0.2	2	-17	3	10
Cc1cc(Oc2ccc(Br)cc2)nc(SCC(=O)c2ccccc2)n1	25	2343	15	3	-15	11	8
C=CCn1c(COc2ccc(CC)cc2)nnc1SCC(=O)NC1CCS(=O)(=O)C1 (configuration not stated)	3	3501	2.0	0	-39	8	16
O=C(c1cc(Br)ccc1Cl)N1CCCC1	nt	3461	nt	7	2	nt	nt
COCCn1c(-c2ccc(F)cc2)nc2oc3cc(OC)ccc3c(=O)c2c1=O	-1	?	5.7	-2	-15	4	0
CC(=O)c1c(C(C)=O)c(C)n(NC(=O)c2ccccc2O)c1C	2	20975*	3.0	-11	1	3	1
Cc1nc(Cc2nnc(SCc3nc(N)nc(Nc4ccccc4C)n3)o2)cs1	9	3032	4.3	-6	-15	nt	nt
Cc1cc(N2O[C@H]3C=C[C@@H]2C3)no1	5	3352	7.1	nt	11	6	8
CC1CC(C)CN(C(=O)Nc2ccc(Br)cc2)C1 (configuration not stated)	-2	2715	0.8	-2	-11	-6	-4
CCOC(=O)CN1CC23C=CC(O2)C(C(=O)NC2CCCCCC2)C3C1=O (configuration not stated)	3	5491	14	12	-11	2	8
CCN(CC)CCC(=O)NC(C)(C)Cc1ccc(O)cc1	6	5142	3.7	11	-4	16	11
O=C(NC(Cc1c[nH]c2ccccc12)C(=O)NCc1ccc(F)cc1)OCc1ccccc1 (configuration not stated)	4	2178	3.3	-3	-8	1	7

Compound profiles, as listed above:
COCCn1c(-c2ccc(F)cc2)nc2oc3cc(OC)ccc3c(=O)c2c1=O in the list: ugtP null kill: -1; Autofluor counter: ?; Sa RN4220 lethal: 5.7; BJeLR lethal: -2; PrP 5UTR inh: -15; Mtb hypoxia rep: 4; Mtb hypoxia rep growth: 0
O=C(CN1CCCCC1)Nc1cccc2c1OCO2 in the list: ugtP null kill: 0; Autofluor counter: 2551; Sa RN4220 lethal: -8.6; BJeLR lethal: -7; PrP 5UTR inh: -17; Mtb hypoxia rep: 9; Mtb hypoxia rep growth: 9
CC(=O)c1cccc(-n2nnnc2SCC(=O)NNC(=O)C(C)C)c1 in the list: ugtP null kill: 9; Autofluor counter: 4517; Sa RN4220 lethal: 3.2; BJeLR lethal: nt; PrP 5UTR inh: -53; Mtb hypoxia rep: -8; Mtb hypoxia rep growth: -4

3 entries picked at random from the list so far, as already listed:
SMILES	ugtP null kill	Autofluor counter	Sa RN4220 lethal	BJeLR lethal	PrP 5UTR inh	Mtb hypoxia rep	Mtb hypoxia rep growth
O=C(COC(=O)/C=C/c1cccc(F)c1)Nc1ccc2[nH]c(=O)[nH]c2c1	4	5347	3.7	4	2	0	4
C/C=C/c1ccc(OCC(=O)Nc2cc(C(F)(F)F)ccc2N2CCOCC2)c(OC)c1	5	5697	2.0	10	-19	-5	2
CCOC(=O)N1CCN(C(=O)c2ccc3c(=O)n(CC4CCCO4)c(=S)[nH]c3c2)CC1 (configuration not stated)	2	3945	0.3	-4	-4	3	10
